# High-throughput results as filed in PubChem BioAssay.
# Rango release inh: qHTS Assay for Inhibitors of RanGTP induced Rango (Ran-regulated importin-beta cargo) - Importin beta complex dissociation | Snurportin-1 (Homo sapiens) + GTP-binding nuclear protein Ran (Homo sapiens) + Importin … | Biochemical FRET Rango-importin beta, RanGTP-induced dissociation | Potency, µM (series often up to 46.1 µM), without a hit: at the highest dose activity change, negative = inhibition | 0.071% of 340,000 active | AID 540253, 2011; active means falling FRET ratio curve, often poorly fitted, with flat reads before Ran was added; inconclusive means other falling curves, or compound fluorescence or quenching; inactive means flat or rising ratio curve;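 further: potency means the concentration at half of the fitted maximal effect; % of control where 0% means no effect; nearly all actives have a fitted effect of over 45% in size; -100% = wells without RanGTP and RCC1; the record marks most hits as doubtful in a second field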
#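 Rango (0.1 uM)–importin beta (0.25 uM) complex; RanGTP-RCC1 trigger; 45 min RT; CFP/YFP FRET read.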
# Rango-impB inh: qHTS Assay for Inhibitors of Rango (Ran-regulated importin-beta cargo) - Importin beta complex formation | Importin subunit beta-1 (Homo sapiens), Q14974 | Rango CFP/YFP FRET sensor + importin beta, 45 min | Potency, µM (highest dose often 92.2 µM), for inactives: at the top dose inhibition of complex formation | 0.031% of 340,000 active | AID 540263, 2011; active = rising FRET ratio curve, often small or poorly fitted; inconclusive = mostly compound fluorescence or quenching in the first reads; inactive = flat curves in all reads;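 further: potency means the concentration at half of the fitted maximal effect; 0% = DMSO wells and 100% = buffer wells lacking importin beta; nearly all actives have a fitted effect of over 15% in size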
# Target sequence (Q14974 whole entry, looked up): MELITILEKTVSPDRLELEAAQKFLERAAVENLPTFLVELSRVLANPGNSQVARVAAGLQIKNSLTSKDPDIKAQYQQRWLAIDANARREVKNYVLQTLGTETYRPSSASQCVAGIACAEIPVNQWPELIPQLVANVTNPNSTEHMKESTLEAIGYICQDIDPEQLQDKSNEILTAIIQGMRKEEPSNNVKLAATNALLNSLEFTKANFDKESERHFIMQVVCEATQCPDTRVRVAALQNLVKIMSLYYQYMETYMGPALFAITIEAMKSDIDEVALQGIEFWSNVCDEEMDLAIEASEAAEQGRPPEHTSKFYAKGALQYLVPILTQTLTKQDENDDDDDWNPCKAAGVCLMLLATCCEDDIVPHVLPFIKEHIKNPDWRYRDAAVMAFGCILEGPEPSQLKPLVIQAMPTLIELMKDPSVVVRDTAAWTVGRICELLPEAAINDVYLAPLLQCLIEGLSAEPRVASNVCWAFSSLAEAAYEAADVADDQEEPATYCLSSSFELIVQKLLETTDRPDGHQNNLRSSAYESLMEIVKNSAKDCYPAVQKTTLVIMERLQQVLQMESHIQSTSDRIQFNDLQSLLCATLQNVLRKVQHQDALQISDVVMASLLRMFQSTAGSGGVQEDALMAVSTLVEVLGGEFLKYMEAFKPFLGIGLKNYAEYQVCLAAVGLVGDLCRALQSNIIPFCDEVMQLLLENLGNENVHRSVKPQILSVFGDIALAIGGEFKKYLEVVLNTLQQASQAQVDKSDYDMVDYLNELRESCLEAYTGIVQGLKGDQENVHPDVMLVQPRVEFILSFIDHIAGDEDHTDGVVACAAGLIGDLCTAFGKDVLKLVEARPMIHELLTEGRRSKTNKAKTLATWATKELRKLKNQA
#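 FRET biosensor Rango (snurportin 1 IBB between N-terminal EYFP and C-terminal Cerulean), 50 nM in PBS/1 mM DTT/0.02% Tween-20/0.1% BSA, preincubated 5 min RT with compound; 0.125 microM importin beta added, 45 min RT, CFP/YFP FRET ratio read.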
# GLA inh pH 4.5: qHTS Assay for Inhibitors of Human alpha-Galactosidase at pH 4.5. activity change, negative = inhibition, % at 105 µM. Alpha-galactosidase A (Homo sapiens), P06280. AID 1467, 2008. 230,000 tested, under 10 active. purified enzyme, 4-MU-alpha-Gal fluorescence, pH 4.5; inconclusive = small, poorly fitted or top-dose-only inhibition, or a rising curve; inactive = flat fitted curve, though single readings scatter; no compound was filed as active;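 further: 0% = full activity with enzyme and -100% = basal without enzyme; dose as in the result columns while the protocol names 77 µM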
# miR-21 reporter: qHTS Assay for Modulators of miRNAs and/orActivators of miR-21; Potency, µM (top dose mostly 38.3 µM), for inactives: top-dose reporter change, positive = more light; HeLa miR-21 FLuc reporter, luciferase, 48 h; AID 2288, 2010; 340,000 tested, under 10 active; active = well fitted rising curve with a large enough effect; inconclusive = small, poorly fitted or top-dose-only effect; inactive = no such curve, though single readings can be large or run the other way;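 further: % of control where 0% means no effect; miR-21 action dims this reporter so a rising signal means less miR-21 action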
#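 Compounds were titrated across several concentrations (up to approximately 40 uM) and incubated 48 hours with HeLa miR-21-FLuc reporter cells (miR-21 target sequence downstream of FLuc, endogenous miR-21). Readout was firefly luciferase luminescence after lytic detection reagent.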
# Active calls of the source: *; ? = inconclusive; nt = not tested or not shown; & = joins results of further samples; [ ] = another dose, or the depositor's remark. A portion of the library; the hit share may differ from the screen's.
# Start of the listing, in advance, two compounds:
# Order of results: Rango release inh | Rango-impB inh | GLA inh pH 4.5 | miR-21 reporter
Nc1ccc(C2(c3ccc(N)cc3)CCCCC2)cc1
    1% | 2.7% | -4 | 3%
COc1ccc(OC)c(NP(=O)(Oc2ccc(Cl)cc2)Oc2ccc(Cl)cc2)c1
    -1% | -0.6% | -8 | -7%

# The whole of this part, from the start:
# Order of results: Rango release inh | Rango-impB inh | GLA inh pH 4.5 | miR-21 reporter
Nc1ccc(C2(c3ccc(N)cc3)CCCCC2)cc1
    1% | 2.7% | -4 | 3%
COc1ccc(OC)c(NP(=O)(Oc2ccc(Cl)cc2)Oc2ccc(Cl)cc2)c1
    -1% | -0.6% | -8 | -7%
CCOc1cc2c(cc1OCC)-n1cccc1C(c1ccc(OC)cc1)NC2 (stereo not given)
    25% | 2.4% | nt | 10%
Cc1ccc(-c2cc(C(=O)N3CCC4(CC3)OCCO4)no2)cc1
    8% | 1.5% | 3 | -27%
Fc1ccc(C(OCCN2CCN(CCCc3ccccc3)CC2)c2ccc(F)cc2)cc1
    12% | -3.9% | -12&-20&-2 | nt
CC1(C)CC(=O)c2cc(OCC(=O)N3CCN(Cc4ccccc4)CC3)ccc2O1
    0% | 0.1% | 17[21.1 µM] | -1%
COC(=O)C1=C(c2ccc(OC)c(OC)c2)C[C@@H]2CC[C@H]1N2C(=O)N1CCCC1
    8% | -0.2% | nt | nt
C[C@]12CCC3C(CC[C@H]4CC(=O)CC[C@]34C)C1CCC2=O (stereo not given in full)
    0% | -2.2% | nt | nt
CCN(CC)S(=O)(=O)c1ccc(N=Cc2c(O)n(-c3ccccc3)c(=O)[nH]c2=O)cc1
    1% | 0.3% | -5 | -2%
O=C1/C(=C/c2ccc([N+](=O)[O-])cc2)N2CCC1CC2
    1% | -0.4% | -4 | -8%
CC(C)(C)c1cc(OC(=O)Cc2ccccc2)ccc1O
    21% | -3.2% | nt | -5%
CCOC(=O)C(O)(c1ccc(NC(=S)NC(=O)c2ccc(Cl)cc2Cl)cc1)C(F)(F)F (stereo not given)
    24% | 2.2% | -7 | 22%
C=CCn1c(O)c(C(CC)=NCc2ccc3c(c2)OCO3)c(=O)[nH]c1=O
    2% | -1.9% | 5 | 13%
NP(=O)(Oc1ccccc1)c1ccccc1 (stereo not given)
    ? | -0.2% | nt | nt
COC(=O)C1=C(c2cccc(C#N)c2)C[C@@H]2CC[C@H]1N2C(=O)N1CCOCC1
    -5% | -1.5% | nt | nt
Cc1ccccc1N1C(=O)NC(=O)/C(=C\c2cc(C)n(C)c2C)C1=O
    -16% | ? | -6 | -2%
CCN1C[C@]2(COC)CC[C@H](O)[C@]34C1[C@](O)([C@@H](OC)[C@H]23)[C@@]1(O)C[C@H](OC)[C@H]2C[C@@H]4[C@@H]1[C@H]2OC
    2% | 0.9% | nt | nt
CCN(CC)CCN=Cc1c(O)n(Cc2ccco2)c(=O)[nH]c1=O
    16% | 0.6% | 4 | 3%
CCOc1cc2c(cc1OCC)-n1cccc1C(c1ccc(F)cc1)NC2 (stereo not given)
    -2% | 0.3% | nt | 2%
Oc1ccccc1/C=N/NP(=S)(c1ccccc1)c1ccccc1
    16% | -1.0% | -17 | 15%

# Full records, looked up by structure.
# CCN1C[C@]2(COC)CC[C@H](O)[C@]34C1[C@](O)([C@@H](OC)[C@H]23)[C@@]1(O)C[C@H](OC)[C@H]2C[C@@H]4[C@@H]1[C@H]2OC across the screens: Rango release inh = 2%; Rango-impB inh = 0.9%; GLA inh pH 4.5 = nt; miR-21 reporter = nt
# CC(C)(C)c1cc(OC(=O)Cc2ccccc2)ccc1O across the screens: Rango release inh = 21%; Rango-impB inh = -3.2%; GLA inh pH 4.5 = nt; miR-21 reporter = -5%
# Oc1ccccc1/C=N/NP(=S)(c1ccccc1)c1ccccc1 across the screens: Rango release inh = 16%; Rango-impB inh = -1.0%; GLA inh pH 4.5 = -17; miR-21 reporter = 15%

# (continued)
# Order of results: Rango release inh | Rango-impB inh | GLA inh pH 4.5 | miR-21 reporter
Cc1c(C(=O)O)cccc1-n1c(C)cc(/C=C2\C(=O)NC(=O)N(c3ccc4c(c3)OCO4)C2=O)c1C
    -24% | -0.1% | 2 | -4%
CC1(C)Cc2c(C#N)c(N3CCNCC3)nc(-c3ccco3)c2CS1
    2% | -1.5% | 3 | -1%
Cc1cc(=O)oc2c(C)c(OCC(=O)N3C[C@H]4C[C@@H](C3)c3cccc(=O)n3C4)ccc12
    ? | 0.8% | nt | 0%
CN(C)c1nc(-c2ccccc2)[n+](C)s1
    13% | -0.1% | -16 | -5%
O=C(Cc1ccccc1)N1CCN(Cc2ccc([N+](=O)[O-])cc2)CC1
    0% | -0.1% | 2 | -5%
CSc1ccc(C(=O)C2CCCN(Cc3ccn[nH]3)C2)cc1 (stereo not given)
    2% | -1.9% | -4 | -8%
CN1C2CCC1CC(OC(=O)c1ccc(Cl)cc1)(C(=O)O)C2 (stereo not given)
    20% | -2.6% | 4 | -1%
O=C1NC(=O)C(=Cc2ccc(SC3CCCCC3)o2)C(=O)N1
    -5% | -3.5% | -12 | 23%
O=c1[nH]c(=S)n(Cc2ccc(F)cc2)c(O)c1/C=N/N1CCCCCC1
    ? | ? | 8 | 3%
Cn1c(O)c(C=NC2CC3CCC2(C)C3(C)C)c(=O)[nH]c1=O (stereo not given)
    8% | -0.9% | 6 | -24%
O=C(c1ccc2c(c1)ncn2C1CCCCCC1)N1CCC2(CC1)OCCO2
    -5% | 1.8% | -1 | 9%
O=C(c1ccccc1)c1ccc(N=Nc2c(O)[nH]c(=O)[nH]c2=O)cc1
    4% | 1.9% | -15 | -8%
CCOc1ccc(N2C(=O)NC(=O)/C(=C\c3ccc(N4CCOCC4)cc3C)C2=O)cc1
    0% | 1.4% | -4 | -4%
Cc1cc(OC(C)C(=O)NCC(O)c2ccccc2)c2c3c(c(=O)oc2c1)CCCC3 (stereo not given)
    -2% | 0.0% | nt | 0%
COC(=O)C1=C(c2cc3ccccc3s2)C[C@@H]2CC[C@H]1N2C(=O)NCc1ccccc1
    -18% | 1.1% | nt | nt
c1ccc(CCN2CCC3(CC2)OCCO3)cc1
    -11% | 2.2% | nt | nt
CCOC(=O)C1(c2ccccc2)CCN(CCC(=O)Nc2ccccc2OC)CC1
    -2% | 0.9% | nt | 1%
CCOc1ccccc1N1C(=O)CC(=O)NC1=O
    -7% | 0.4% | nt | 2%
CC/C(=N\Nc1cccc2ccccc12)c1c(O)[nH]c(=O)[nH]c1=O
    -30% | ? | 6 | 15%
O=c1c2ccccc2nc(/C=C/c2ccc(O)cc2)n1-c1ccccc1O
    ? | ? | -20 | -9%
CC(C)(C)c1ccc(C(=O)C2CCCN(Cc3ccon3)C2)cc1 (stereo not given)
    -2% | 1.5% | 5 | -40%
C/C=C/c1ccc2c(c1)OCO2
    4% | 4.5% | -11&11 | nt
COc1cc(OC)c2c(c1)O[C@@H](c1ccc(OC)c(OC)c1)[C@H](O)C2
    11% | 1.2% | nt | -12%
CCc1nccc2c1[nH]c1ccccc12
    -6% | 3.4% | nt | nt
CCCCCn1c(=O)c(C(=O)Nc2ccncc2)c(O)c2ccccc21
    nt | nt | 0 | -9%
CN(C)[C@@H]1C(=O)C(C(N)=O)=C(O)[C@@]2(O)C(=O)C3=C(O)c4c(O)cccc4[C@@](C)(O)C3C[C@@H]12 (stereo not given in full)
    -21% | ? | nt | nt
CC(C)(C)NC(=O)Cn1cc(C(=O)c2ccccc2F)c2ccccc21
    11% | 0.0% | 8 | 0%
CCN(CC)P(=O)(NC(=O)c1cccn1C)N(CC)CC
    4% | 5.2% | 7 | 7%
CCCC12CN3CCN(CC(C3)/C1=N\NC(=O)c1ccncc1)C2
    -5% | 6.2% | -4 | 2%
COc1ccc(CC2C(=O)NC(=O)NC2=O)c(OC)c1
    1% | -0.6% | -2 | -7%
COc1ccc(CN2C(=O)NC(=O)/C(=C/c3ccc(OC)c(OC)c3OC)C2=O)cc1
    8% | -0.6% | 6 | 0%
CCN(C(=O)COC(=O)Cc1ccccc1)c1c(N)n(Cc2ccccc2)c(=O)[nH]c1=O
    3% | 2.5% | nt | nt
CC1[C@H]2Cc3ccc(O)cc3[C@]1(C)CCN2C (stereo not given in full)
    -1% | 0.7% | nt | nt
c1nc2nc3c(c(N4CCNCC4)n2n1)CCCC3
    ? | 1.8% | -4 | 1%
CN1CC(C(=O)c2ccc(F)cc2)C(c2c(F)cccc2Cl)C1 (stereo not given)
    -15% | -0.4% | 3 | -2%
Cc1cccnc1-n1c(-c2ccccc2)nc2ccccc2c1=O
    8% | -1.1% | 5 | -3%
CCN1CCN(c2ccc([N+](=O)[O-])cc2C(=O)OC)CC1
    34% | 0.1% | -20 | -3%
CN(C)C(=O)Oc1cc(OC(=O)N(C)C)cc(C(O)CNC(C)(C)C)c1 (stereo not given)
    -12%&-17% | 0.2%&1.2% | 2 | nt
Cc1nc2ccccc2c(=O)n1-c1ccc(Cl)c(Cl)c1
    ? | -0.4% | nt | -59%
COc1ccccc1N1CCN(CCc2ccccc2)CC1
    0% | -0.7% | nt | -11%
CNC(=O)OCc1n(C)cc[n+]1C
    14% | 0.1% | 12 | -13%
COC(=O)C1=C(c2ccc3ccccc3c2)C[C@@H]2CC[C@H]1N2C(=O)NCc1ccc(C(F)(F)F)cc1
    -1% | 4.4% | nt | nt
COc1cc(C#Cc2c(-c3cncn3C)n(C)c3ccc(-c4cnc(N5CCOCC5)nc4)cc23)cc(OC)c1
    37% | -4.5% | nt | nt
CN1CCN(c2ccc([N+](=O)[O-])c(SCCO)c2)CC1
    -2% | 0.2% | -11 | 3%
CN(C)C(=O)NC(O)C(Cl)(Cl)Cl (stereo not given)
    1% | 14% | 8 | 1%
CN1C(=O)N(C)C(=O)C2(Cc3cc(NC(=O)c4ccccc4Cl)ccc3N3CCCC32)C1=O (stereo not given)
    ? | ? | nt | -7%
COC(=O)C1=CCCN(C)C1
    2% | -2.0% | -5&1&3&-3 | -2%
O=[N+]([O-])c1ccc(NCCCN2CCOCC2)nc1
    -1% | -1.9% | nt | 0%
CCCC(C)C1(CC)C(=O)NC(=Nc2ccc(OC)cc2)NC1=O (stereo not given)
    ? | 0.7% | 4 | 0%
CC(C)Oc1cccc(C(=O)C2CCCN(Cc3ccon3)C2)c1 (stereo not given)
    0% | 1.0% | 7 | -19%

# Further entries follow.
# Order of results: Rango release inh | Rango-impB inh | GLA inh pH 4.5 | miR-21 reporter
CCC(=NCc1cc(OC)cc(OC)c1)c1c(O)n(C2CCCCC2)c(=O)[nH]c1=O
    11% | -2.4% | -1 | -13%
Cc1ccc(CC(=O)N2CCN(Cc3ccccc3)CC2)cc1
    35% | 0.9% | 4 | -22%
CCCCn1c(O)c(C=NC2CCCCC2N)c(=O)[nH]c1=O (stereo not given)
    0% | ? | -9 | -4%
Cc1ccc2c(c1)C1CN(C)CCC1N2C(=O)c1ccco1 (stereo not given)
    17% | 0.2% | -5 | -11%
Cc1ccc(C(=O)n2cc(CCN3CCS(=O)(=O)CC3)c3ccccc32)cc1
    2% | 1.9% | 1 | 5%
COc1ccc2c(c1)c(C(=O)CN1CCN(C)CC1)c(C)n2Cc1ccccc1
    -9% | 6.6% | -2 | -15%
COc1cccc2c1C(=O)c1c(O)c3c(c(O)c1C2=O)CC(O)(C(C)=NO)CC3OC1CC(N)C(O)C(C)O1 (stereo not given)
    -2% | ? | nt | nt
O=C(NC(=S)N1C[C@H]2C[C@H](C1)c1cccc(=O)n1C2)c1ccc(Cl)cc1Cl
    0% | 3.4% | nt | -2%
N#Cc1ccc(NC(=O)CN2C(=O)NC3(CCCCCCC3)C2=O)cc1Cl
    0% | -1.3% | nt | nt
O=C(O)C(Cc1cnc[nH]1)NS(=O)(=O)c1ccc(Br)cc1 (stereo not given)
    5% | 6.7% | nt | 0%
CC(=O)N1CCN(Cc2ccc(Cl)nc2)CC1
    18% | 7.7% | nt | 2%
